LANA-H2B inh = blocks KSHV LANA binding to histone H2A/H2B; 320,000 tested, 0.6% active; cell-free LANA-H2A/H2B peptide, fluorescence polarization; inhibition, % (test concentration not listed); Q9QR71; in the data active means inhibition mostly above about 10%, no sharp cut-off; inactive means mostly below about 6.7%;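 further: stock transfer was 7.5 nL into about 10 µL; 0% = median of vehicle wells and 100% = median of positive control wells; one replicate is shown; the record names a cut of 25% in any replicate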
Calb FLC = C. albicans growth modulation with fluconazole. AID 1979. growth inhibition, % (test concentration not listed). 300,000 tested, 0.57% active. C. albicans CaCi-2 (fluconazole-resistant clinical isolate) + fluconazole, Alamar Blue growth, 48 h;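 active means most replicates above 75%; inconclusive means exactly half above 75%; inactive means most below 75%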;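 further: all wells also contain fluconazole at 8 µg/ml as a sub-toxic cotreatment; 0% = median of DMSO wells and 100% = median of geldanamycin control wells; wells of about 8 µL received 7.5 nL stock; the first replicate is given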
RanGTP-Impb inh = inhibitors of RanGTP-importin-beta interaction, primary screen, biochemical, FRET, CFP-Ran, YFP-importin-beta, homogeneous. AID 2216. 300,000 tested, 1.1% active. cell-free CFP-Ran/YFP-importin-beta FRET ratio. inhibition, % (test concentration not listed);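 active means most replicates above 15%; inconclusive means exactly half above 15%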;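 further: 0% = DMSO wells and 100% = Ran loaded with GDP instead of GTP; wells of about 40 µL received 100 nL stock; the first replicate is given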
Vif A3G = inhibitors of Vif binding to APOBEC3G peptide, primary screen, biochemical, TR-FRET, GST-Vif 1-94, biotin-A3G peptide, dose response retest (AID 1117319); inhibition, %; hits with a dose series show IC50 in µM; TR-FRET GST-Vif / biotin-A3G peptide binding; higher % means a stronger effect; test concentration not given here; strong numbers were not always called active; 260,000 tested, 0.57% active;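 active means above the screen mean plus three standard deviations and confirmed in dose response; inconclusive means results disagree or hit not tested in dose response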;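 further: Vif residues 1-94 fused to GST binding biotinylated APOBEC3G peptide 110-148; 0% = full assay without inhibitor and 100% = GST in place of GST-Vif; retest series ran down from 100 µM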
ALR inh = human ALR oxidase inhibition via reduced H2O2; purified ALR, DTT oxidation, H2O2 HRP-luminol luminescence; P55789; inhibition, % (test concentration not listed); 290,000 tested, 3.8% active;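 active means mean and each replicate at 75% or more; inconclusive means only one of the two met; inactive means neither met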;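 further: stock transfer was 7.5 nL into about 7.5 µL; 0% = neutral wells and 100% = wells with inactivated enzyme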
Target sequence (P55789 whole entry, looked up): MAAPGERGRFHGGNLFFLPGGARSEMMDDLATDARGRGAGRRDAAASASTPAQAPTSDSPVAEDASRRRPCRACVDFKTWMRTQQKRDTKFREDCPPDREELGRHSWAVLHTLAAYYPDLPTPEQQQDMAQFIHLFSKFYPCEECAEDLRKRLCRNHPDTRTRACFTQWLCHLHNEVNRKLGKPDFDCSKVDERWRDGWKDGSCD
B2AR ag = human beta-2 adrenergic receptor agonism by FAP. Am2.2-beta2AR cells, FAP receptor internalization, flow cytometry; reference of the scale not given here. 340,000 tested, 0.43% active. P07550. response, % (no concentration beside the values);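 active means response above a set limit, near 3 SD of response in nonfluorescent compounds, cut at about 42% in these data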;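 further: stock transfer was 100 nL into about 11 µL; a reference agonist was the positive control; negative values mostly stem from fluorescent compounds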
Target sequence (P07550 whole entry, looked up): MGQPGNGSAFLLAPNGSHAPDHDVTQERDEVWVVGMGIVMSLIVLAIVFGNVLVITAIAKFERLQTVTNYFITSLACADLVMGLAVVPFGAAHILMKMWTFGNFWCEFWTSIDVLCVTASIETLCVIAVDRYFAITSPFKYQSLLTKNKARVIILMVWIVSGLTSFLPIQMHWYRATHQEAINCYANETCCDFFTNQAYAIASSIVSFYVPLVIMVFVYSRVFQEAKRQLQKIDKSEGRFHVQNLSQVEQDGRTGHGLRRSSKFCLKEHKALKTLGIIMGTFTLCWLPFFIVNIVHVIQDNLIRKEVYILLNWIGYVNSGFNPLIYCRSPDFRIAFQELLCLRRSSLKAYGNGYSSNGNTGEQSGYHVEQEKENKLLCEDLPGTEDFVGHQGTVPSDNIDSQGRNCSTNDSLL
HNF4A DNA FP = change in binding of human HNF4 alpha to DNA | 360,000 tested, 0.3% active | HNF4a-FITC DNA binding, fluorescence polarization, 1 h | activity change, % at 10 µM | AID 1224865 | P41235; in the data active means activity change above about 30%, passing the limit was not always enough;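 further: controls were the assay level and a saturating level of protein; the project sought stronger binding though the title names inhibitors; some compounds called inactive have numbers as strong as hits; positive values seem to mean higher polarization but the record does not say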
Target sequence (P41235 whole entry, looked up): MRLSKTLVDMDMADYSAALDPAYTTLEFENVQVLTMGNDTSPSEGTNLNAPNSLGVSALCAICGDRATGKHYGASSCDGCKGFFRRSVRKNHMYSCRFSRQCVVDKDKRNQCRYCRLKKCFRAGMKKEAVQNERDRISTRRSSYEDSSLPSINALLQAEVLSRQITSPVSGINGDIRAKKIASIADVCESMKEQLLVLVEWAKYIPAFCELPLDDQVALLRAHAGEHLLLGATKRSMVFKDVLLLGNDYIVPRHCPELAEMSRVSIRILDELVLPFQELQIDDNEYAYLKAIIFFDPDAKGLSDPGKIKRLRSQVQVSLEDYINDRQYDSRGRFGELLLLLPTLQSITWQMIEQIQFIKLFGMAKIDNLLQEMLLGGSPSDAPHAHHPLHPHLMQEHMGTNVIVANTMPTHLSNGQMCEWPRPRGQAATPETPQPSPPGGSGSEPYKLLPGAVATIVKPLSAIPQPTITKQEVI
Active calls of the source: *; ? = inconclusive; nt = not tested or not shown; & = joins results of further samples.

SMILES	LANA-H2B inh	Calb FLC	RanGTP-Impb inh	Vif A3G	ALR inh	B2AR ag	HNF4A DNA FP
CCn1c(COc2ccccc2OC)nc2ccccc21	3.2	-7.2	-2.3	nt	-1.3	0.3	0.5
COc1ccc(NC(=O)C2(c3ccc(NC(=O)c4ccc(OC)c(OC)c4)cc3)CCCC2)cc1	-0.3	-30.7	5.1	0.1%	-1.3	-5.2	1.1
CCOC(=O)Nc1c2ccccc2nc2ccccc12	-6.7	nt	131.2*	2.2%	-111.0	-3.5	-4.4
CCOC(=O)c1sc(N)c(C(=O)OCC)c1C	-10.5	0.1	-0.3	0.3%	2.0	-0.9	-2.5
Cc1ccc(C)n1-c1cccc(S(=O)(=O)N2CCOCC2)c1	1.0	20.2	-1.2	nt	-0.1	-0.4	1.1
Cc1scc(C(=O)NNC(=S)NCC2CCCO2)c1C (stereo not given)	1.6	1.5	2.3	6.4%	26.8	-1.6	1.1
CC(C)(C)c1ccc(C(=O)Nc2ncn[nH]2)cc1	-1.1	-41.2	3.0	-4.4%	-0.1	5.3	-2.0
CNC(=S)NNc1nncc2ccccc12	3.8	4.3	2.7	-3.6%	106.1*	-3.7	-1.5
COc1cc(NC(=O)c2ccco2)c(OC)cc1NC(=O)Nc1ccccc1Cl	9.2	26.7	1.6	1.1%	-15.5	-6.9	0.2
CCOc1ccc(Cl)cc1/C=N/NC(=O)CNC(=O)c1ccccc1	3.0	3.6	2.4	2.1%	3.8	7.7	-0.8
COc1ccc(/C=C/C(=O)OCC(=O)N2CCCCCC2)cc1OC	-2.0	nt	nt	-4.9%	-3.3	-1.9	1.8
COc1ccc(N2CCC(CNS(=O)(=O)c3cccc(C(F)(F)F)c3)C2)cc1 (stereo not given)	2.9	-2.2	2.5	?	27.5	10.8	3.1

Overlap with the part before: 2 entries, followed by the next part.
SMILES	LANA-H2B inh	Calb FLC	RanGTP-Impb inh	Vif A3G	ALR inh	B2AR ag	HNF4A DNA FP
COc1ccc(/C=C/C(=O)OCC(=O)N2CCCCCC2)cc1OC	-2.0	nt	nt	-4.9%	-3.3	-1.9	1.8
COc1ccc(N2CCC(CNS(=O)(=O)c3cccc(C(F)(F)F)c3)C2)cc1 (stereo not given)	2.9	-2.2	2.5	?	27.5	10.8	3.1
Cc1cc(C)c(NC(=O)CS(=O)CC(=O)NCCCc2ccccc2)c(C)c1 (stereo not given)	1.5	-3.2	2.9	1.5%	-2.6	17.4	-3.0
CCc1cc(C)cc(OCCOc2ccccc2/C=N/NC(C)=O)c1	1.5	3.9	0.8	0.3%	-0.6	-6.8	2.6
NC(=O)c1ccccc1NC(=O)CN1CCN(Cc2ccccc2)CC1	1.6	-16.3	-3.7	1.2%	1.8	-2.7	1.1
CN(c1cccc(NC(=O)c2ccc(Cl)c(S(=O)(=O)N3CCOCC3)c2)c1)S(C)(=O)=O	-4.4	20.7	0.1	nt	-17.6	21.2	0.0
CC(=C/C(=O)O)/C=C/c1ccc(Cl)o1	1.1	14.7	0.4	27.4µM*	-0.5	-9.9	-15.8
COc1ccc(N2CCN(C(=O)CCCn3nnnc3CN3CCOCC3)C(C)C2)cc1 (stereo not given)	3.9	6.6	7.0	-4.1%	99.0*	-3.7	2.3
COc1ccc(NC2=CC(c3ccccc3)N(c3ccc(OC)cc3)C2=O)cc1 (stereo not given)	-0.9	-4.1	0.1	-2.1%	-13.2	1.7	3.3
O=C(CCSCCC(=O)NN=Cc1ccccc1)NN=Cc1ccccc1	nt	nt	nt	2.8%	nt	-8.9	7.8
Cc1cccc(OCC(=O)Nc2ccc(N3CCN(C(=O)c4ccco4)CC3)cc2)c1	-2.6	-14.7	2.3	-4.0%	7.8	19.4	-2.6
Cc1cccc(NS(=O)(=O)c2c(C)n[nH]c2C)c1	0.7	0.0	4.5	1.1%	2.1	0.8	-3.7
CC(/C=C1\SC(=S)N(NC(=O)c2ccccc2C)C1=O)=C\c1ccccc1	12.9	-20.6	-0.1	nt	1.6	0.3	-1.5
C=C1C(O)C[C@H]2C(=C)CCC3[C@H](OC(=O)[C@]3(O)CO)[C@@H]12 (stereo not given in full)	0.7	-7.1	5.1	23.4%	-7.1	4.9	-3.1
CCc1cccc(NC(=O)CSc2nnc(Cc3ccc(OC)cc3)c(=O)[nH]2)c1	2.6	-0.4	2.1	1.4%	-4.5	4.4	-0.8
CN(C)c1ccc(NS(=O)(=O)c2ccc(-c3csnn3)cc2)cc1	-4.3	3.0	1.3	7.9%	98.8*	-9.9	3.8
CC1CCN(C(=O)C2(NC(=O)Nc3cccc(F)c3)CCCCC2)CC1	-3.3	0.7	3.1	-4.6%	-1.4	-2.4	-2.2
Nc1ccc2c(c1)C(=O)N(CC1CCCO1)C2=O (stereo not given)	1.7	4.0	-2.9	18.4%	-2.2	-9.8	-4.4
Cc1ccc(NC(=O)COC(=O)c2ccc(S(=O)(=O)N3CCCC3)cc2)cc1	nt	nt	nt	-1.1%	nt	2.9	-1.4
CC(C)Cc1nc(N2CCC(C(N)=O)CC2)c2nnn(Cc3ccccc3)c2n1	0.3	31.9	-0.7	2.9%	-1.4	-2.5	4.0
COc1ccc(NC(=O)c2cc(-c3cc(C)ccc3O)n[nH]2)cc1Cl	-4.4	5.2	?	-1.3%	0.8	11.5	1.3
COc1ccc(S(=O)(=O)N2CCN(c3ccccn3)CC2)cc1OC	-0.9	-13.3	2.4	4.3%	3.7	-10.6	-2.3
COCCn1cnc2c1c(=O)n(CC(=O)OCC#N)c(=O)n2Cc1ccccc1	-7.0	0.7	-4.9	nt	nt	-2.1	1.2
CC(=O)c1ccc(NC(=O)CN2CCC(NC(=O)C3CCCCC3)CC2)cc1	-3.1	-4.9	2.1	-3.6%	71.0	7.6	-0.9
O=C(NCc1ccco1)c1ccc(Cl)c(S(=O)(=O)Nc2ccccc2)c1	5.1	2.9	-2.5	0.1%	-0.2	0.7	3.7
Cc1nc2ncnn2c(C)c1CCC(=O)N1CCc2ccccc2C1	0.2	?	-1.3	3.8%	-0.4	-2.6	3.1

Look-ups from the results shown.
For RanGTP-Impb inh, CCOc1ccc(Cl)cc1/C=N/NC(=O)CNC(=O)c1ccccc1 is listed with 2.4
For LANA-H2B inh, CN(c1cccc(NC(=O)c2ccc(Cl)c(S(=O)(=O)N3CCOCC3)c2)c1)S(C)(=O)=O is listed with -4.4
For HNF4A DNA FP, CNC(=S)NNc1nncc2ccccc12 is listed with -1.5
For LANA-H2B inh, CCc1cccc(NC(=O)CSc2nnc(Cc3ccc(OC)cc3)c(=O)[nH]2)c1 is listed with 2.6
For Calb FLC, NC(=O)c1ccccc1NC(=O)CN1CCN(Cc2ccccc2)CC1 is listed with -16.3
For ALR inh, CN(C)c1ccc(NS(=O)(=O)c2ccc(-c3csnn3)cc2)cc1 is listed with 98.8*
For Vif A3G, COc1ccc(/C=C/C(=O)OCC(=O)N2CCCCCC2)cc1OC is listed with -4.9%

Continued:
SMILES	LANA-H2B inh	Calb FLC	RanGTP-Impb inh	Vif A3G	ALR inh	B2AR ag	HNF4A DNA FP
Cc1cccc(C)c1NC(=O)CN(C)C(=O)c1ccccc1Cc1ccccc1	0.7	1.5	-0.1	-1.4%	1.0	-4.4	-1.9
CN(CC(=O)NCCN1CCOCC1)S(=O)(=O)c1ccc(F)cc1	-2.0	2.9	-1.7	nt	5.0	9.3	2.2
CCN1CCN(c2cc3c(nn2)Oc2ccccc2N3C)CC1	6.4	22.6	8.4	0.5%	-4.3	-20.5	-3.7
Clc1ccccc1CN1CCN(/N=C/C=C\c2ccco2)CC1	-0.8	11.5	2.3	29.3%	11.3	2.4	-3.7
Cc1ccc(S(=O)(=O)c2cnc(-c3ccccc3)nc2N2CCN(C)CC2)cc1	-1.5	-20.2	5.1	-6.2%	0.2	-13.8	-4.3
O=C(NN=C1CCCCCC1)c1ccc(Cl)s1	1.0	7.7	-0.4	nt	-9.6	-3.8	-3.1
CCOC(=O)c1cc(CC)sc1N	0.7	-3.7	5.0	2.5%	-1.8	5.1	3.6
COC(=O)c1cccc(C23CC4(C2)[C@H](CN(CC2CCCCC2)[C@@H]4c2ccccc2)C3c2ccccc2)c1 (stereo not given in full)	-5.6	-21.0	-5.7	24.1%	-3.0	0.8	6.9
O=C(CCn1c(=O)oc2ccccc21)N1CCOCC1	-3.1	-3.8	-1.6	-1.5%	nt	5.6	3.2
CC1CCCCC1NC(=O)c1nn(C)c(=O)c2ccccc12 (stereo not given)	3.8	-9.6	-3.4	9.8%	-2.0	12.5	-1.8
Cc1cc(C)c2nc(N(CCCN(C)C)C(=O)c3ccc(S(=O)(=O)N4CC(C)OC(C)C4)cc3)sc2c1 (stereo not given)	-4.5	-4.7	?	1.2%	-15.3	5.8	-0.2
C(=N\c1nc2ccccc2n1CCN1CCCCC1)/c1cccs1	-1.9	-10.2	0.9	7.9%	6.2	9.0	-0.3
CCOC(=O)Cn1cnc2c(nnn2-c2cccc(Cl)c2)c1=O	3.1	-5.0	2.5	-3.4%	3.7	4.0	-1.3
Cc1noc(/C=C/N(C)C)c1S(=O)(=O)N(C)CC(=O)NC1CCCCC1	3.6	-0.9	2.5	-0.2%	9.6	-4.1	0.9
CCOc1ccc(N(CC(=O)NCC2CCCO2)C(=O)CCC(=O)Nc2nccs2)cc1 (stereo not given)	1.0	-3.4	-2.2	0.7%	-26.6	11.2	2.5
CN1CCC(=NNC(=O)CN(c2ccc([N+](=O)[O-])cc2)S(=O)(=O)c2ccccc2)CC1	-5.4	-11.0	0.2	nt	51.4	-0.8	0.5
Cc1cc(C)c2nc(C(F)(F)F)nc(N3CC(C)OC(C)C3)c2c1 (stereo not given)	2.0	-6.5	-0.4	4.0%	-1.0	-3.3	-2.2
CCc1ccc2ncc(C(=O)c3ccccc3)c(N3CCOCC3)c2c1	-1.7	0.1	2.6	-6.6%	97.1*	-18.4	0.6
Fc1ccccc1CNc1ccc(Cl)cc1	0.6	-3.6	-1.4	6.8%	30.9	6.3	-3.4
O=C(COc1ccccc1)NNC(=O)c1cc2ccccc2o1	1.7	10.5	?	nt	-11.8	4.5	-3.1
O=C(Nc1cccc(S(=O)(=O)C(F)F)c1)c1ccc(Cl)c(S(=O)(=O)N2CCOCC2)c1	-2.0	5.9	0.3	-1.4%&-8.5%	nt	3.7	2.7
O=C(Oc1ccc(Cl)cc1N1C(=O)CCC1=O)c1ccco1	-0.8	-8.2	2.9	27.3%	25.1	2.4	-0.8
CCC(=O)c1cc(F)c(N2CCN(C(=O)c3ccco3)CC2)cc1C	12.7	0.1	-2.1	8.1%	-2.4	-10.2	-2.7
C[n+]1cccc(C(=O)NNC(=O)C23CC4CC(CC(C4)C2)C3)c1	1.7	-8.9	-1.4	32.0%	-3.7	-3.7	2.5

Marked active in RanGTP-Impb inh, among the entries above:
mol	LANA-H2B inh	RanGTP-Impb inh	Vif A3G	ALR inh	B2AR ag	HNF4A DNA FP
CCOC(=O)Nc1c2ccccc2nc2ccccc12	-6.7	131.2*	2.2%	-111.0	-3.5	-4.4

More results.
SMILES	LANA-H2B inh	Calb FLC	RanGTP-Impb inh	Vif A3G	ALR inh	B2AR ag	HNF4A DNA FP
Cc1ccc(S(=O)(=O)N(C)CC(=O)N(CC(C)C)C2CCS(=O)(=O)C2)cc1 (stereo not given)	-2.7	6.4	6.1	-4.7%	5.8	-3.1	6.9
CCN=C1SC(CC(=O)NCC)C(=O)N1CC (stereo not given)	3.9	-10.0	1.4	3.1%	2.2	-9.7	-4.5
CCCN(CC(=O)Nc1ccccc1C)C(=O)c1ccc2c(c1)OCO2	6.3	nt	nt	-2.2%	-1.1	-2.8	2.5
Cn1cccc1Cc1nnc(SCC(=O)N2CCCCCC2)n1-c1ccc(F)cc1	2.0	4.2	-0.1	26.8%	nt	-15.0	1.1
